D2 ag = activates the human D2 dopamine receptor. DiscoveRx PathHunter D2 beta-arrestin, luminescence, 90 min; 100% = 57 uM dopamine signal. P14416. 360,000 tested, 0.084% active. AID 624465. activation, % (concentration not given with the values); in the data active = activation above about 40%; inconclusive = about 15% to 40%; inactive = below about 15%; note: compound concentration not given in the record; the text of the record calls up to 30% inactive
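Agonist mode: compounds alone added to overnight-plated D2 PathHunter cells for 90 min at 37 C, with 57 uM final dopamine (EC100) defining full response. Beta-arrestin recruitment detected by chemiluminescent reagent, read after 1 h at ambient temperature.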
TRPML1 ag = human mucolipin-1 channel agonism. Q9GZU1. TRPML1-expressing cells, Ca2+ dye fluorescence, FDSS; host cell line not named in the record; reference of the full effect not given here. activation, % (test concentration not listed). 410,000 tested, 0.12% active. AID 624414; in the data active = activation above about 50%; inconclusive = about 30% to 50%; inactive = below about 30%; note: 0% is about no effect; the text of the record puts the active cut at 80%
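In this qHTS format, compounds were pin-transferred onto Ca8-dye-loaded TRPML1-DL cells induced with Tet overnight, and intracellular Ca2+ fluorescence was recorded kinetically for 110 s after a 10 s baseline. A subsequent 4uM final 54-4 (EC80) addition followed by a second 110 s read served as the antagonist phase.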
PINK1 expr mod = PINK1 expression modulation; PINK1 immunofluorescence, high-content cytometry, 24 h; Potency, µM (titrated, usually from 76.6 µM), for the others: top-dose activation (PINK1 increase), hits mostly activators; 410,000 tested, 0.2% active; active = well fitted activation curve with a large enough effect; inconclusive = small, poorly fitted or top-dose-only effect; inactive = flat fitted curve, though single readings scatter; cell line not stated here;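 note: potency is the fitted concentration of half-maximal effect; % of control where 0% means no effect; nearly all actives have a fitted effect of over 65% in size; a mitochondrial uncoupler was the plate control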
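PINK1 protein level read as immunofluorescence by microplate cytometer in a fixed, stained stable cell line after 24 h exposure to five compound concentrations, with CCCP as control.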
CtBP-E1A blk = blocks the CtBP interaction with E1A; AlphaScreen GST-E1A/His-CtBP binding, 1536-well; active compounds read low; control for the full effect not named in the record; activity change, % (test concentration not listed); 340,000 tested, 0.49% active; AID 651724; in the data active means activity change below about -65%; inconclusive means about -30% to -65%; inactive means above about -30%; note: % is set by controls: 0 for no effect and ±100 for the full control effect
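Homogeneous bead-based format: GST-tagged E1A captured on glutathione donor beads, His-tagged CtBP on nickel acceptor beads; compounds precede bead addition by 2 h at 37 °C.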
TRPML1 blocker = inhibitors of human TRPML1 channel; TRPML1-inducible cells, Ca2+ dye fluorescence, FDSS; active compounds read low; inhibition of EC80 agonist-evoked calcium signal; Q9GZU1; activity change, negative = inhibition, % (no concentration beside the values); AID 624415; 390,000 tested, 0.02% active; in the data active means activity change below about -50%; inconclusive means about -30% to -50%; inactive means above about -30%;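 note: stimulus is agonist 54-4 at its EC80 concentration; % is set by controls: 0 for no effect and ±100 for the full control effect; compound concentration not given in the record; the text of the record puts the active cut at -80%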
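TRPML1-DL cells, Tet-induced overnight (~16 h, 37 °C) at 1,500 cells/well, were loaded with Ca8 no-wash dye plus quencher for 45-90 min at room temperature. Compounds were pinned during FDSS kinetic reading; agonist 54-4 at EC80 (4 uM final) then added.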
Six1-Eya2 inh = inhibitors of human Six1/Eya2 interaction; Q15475+O00167; 360,000 tested, 0.56% active; AlphaScreen GST-Six1/His-Eya2 binding, biochemical; active compounds read low; control for the full effect not named in the record; activity change, % (test concentration not listed); in the data active = activity change below about -65%; inconclusive = about -30% to -65%; inactive = above about -30%; note: % is set by controls: 0 for no effect and ±100 for the full control effect
Target sequence (O00167 whole entry, looked up): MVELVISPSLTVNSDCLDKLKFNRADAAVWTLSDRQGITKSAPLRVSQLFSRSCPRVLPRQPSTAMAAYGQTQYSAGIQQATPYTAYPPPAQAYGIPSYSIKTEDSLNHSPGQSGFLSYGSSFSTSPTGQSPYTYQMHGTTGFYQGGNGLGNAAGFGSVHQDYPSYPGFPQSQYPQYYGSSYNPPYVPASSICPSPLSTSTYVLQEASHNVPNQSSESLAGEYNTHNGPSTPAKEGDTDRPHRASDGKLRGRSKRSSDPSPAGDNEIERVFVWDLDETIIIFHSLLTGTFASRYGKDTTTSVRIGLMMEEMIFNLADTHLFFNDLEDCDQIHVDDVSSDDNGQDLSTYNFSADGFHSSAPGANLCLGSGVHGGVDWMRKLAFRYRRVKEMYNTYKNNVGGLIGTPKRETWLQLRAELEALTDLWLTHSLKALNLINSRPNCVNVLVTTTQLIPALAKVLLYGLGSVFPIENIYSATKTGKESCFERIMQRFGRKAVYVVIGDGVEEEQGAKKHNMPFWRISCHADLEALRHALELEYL
Target sequence (Q15475 whole entry, looked up): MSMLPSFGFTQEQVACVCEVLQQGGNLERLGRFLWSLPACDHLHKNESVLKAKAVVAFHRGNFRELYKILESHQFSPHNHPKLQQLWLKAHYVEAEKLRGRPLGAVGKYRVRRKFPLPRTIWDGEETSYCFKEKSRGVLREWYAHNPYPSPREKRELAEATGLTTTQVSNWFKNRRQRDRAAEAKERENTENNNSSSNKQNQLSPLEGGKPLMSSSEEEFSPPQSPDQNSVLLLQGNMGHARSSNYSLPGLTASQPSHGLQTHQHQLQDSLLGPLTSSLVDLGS
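Homogeneous AlphaScreen proximity assay pairing GST-Six1 with His-tagged Eya2 (added as 5X mix: 250 nM and 500 nM) in 50 mM Tris pH 8.0, 300 mM NaCl, 1 mM TCEP. Glutathione donor and nickel acceptor beads; 1 h, 37 °C, dark.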
Active calls of the source: *; ? = inconclusive; nt = no result given; [ ] = dose if it differs, or a comment.

SMILES | D2 ag | TRPML1 ag | PINK1 expr mod | CtBP-E1A blk | TRPML1 blocker | Six1-Eya2 inh
COC(=O)[C@@]1(Cc2ccc(F)cc2)[C@H]2c3cc(C(=O)N4CCCC4)n(Cc4ccc(OC(F)(F)F)cc4)c3C[C@H]2CN1C(=O)c1ccccc1 | nt | 0.6 | 5.7% | -14.3 | nt | -11.3
CCc1nc2ccc(C(=O)NC3CCN(C)CC3)cn2c1N(C)CCC(C)C | -2.6 | -0.7 | 0.2% | -4.5 | nt | -4.6
COC(=O)C1=NN[C@H](C(=O)OC)[C@H]1c1ccccc1 | 1.6 | 0.8 | 0.9% | -0.7 | -3.5 | 1.6
CC1CCc2c(sc3nnn(CC(=O)Nc4ccc(Cl)cc4)c(=O)c23)C1 (configuration not stated) | nt | -0.6 | 2.0% | nt | -2.4 | nt
COc1cc(NC(=O)c2cc(-c3cccc(O)c3)on2)cc(OC)c1OC | 6.5 | 0.7 | 3.8% | -1.0 | 0.2 | 0.8
Cc1n[nH]c(=S)n1/N=C/c1ccc(OCc2ccc(Cl)cc2Cl)cc1 | 2.9 | -0.8 | 7.3% | 7.1 | 6.4 | -6.0
Cc1cc(C)c(Nc2n[nH]c(=S)s2)cc1C | -4.5 | -0.6 | 0.9% | -4.4 | 12.7 | 2.3
CC(C)(C)c1ccc(C2=CC(c3ccccc3F)n3ncnc3N2)cc1 (configuration not stated) | -5.5 | 5.9 | -0.1% | nt | 49.4 | 4.3
CC(C)CC(NC(=O)/C(=C/c1ccco1)NC(=O)c1ccc(Br)o1)C(=O)O (configuration not stated) | -5.0 | 0.5 | 0.9% | nt | 2.9 | -8.7
O=S(=O)(NCCc1nnc2ccc(SCc3cccnc3)nn12)c1ccccc1 | -2.8 | 0.9 | -1.1% | nt | -13.2 | 14.0
Cc1ncc([N+](=O)[O-])n1CCOC(=O)NC(NCc1ccccc1)C(Cl)(Cl)Cl (configuration not stated) | -2.8 | 0.2 | -0.4% | 2.2 | 2.1 | -2.0
COc1ccc(CNC(=O)c2nn(-c3ccccc3)cc2OC)cc1 | -4.2 | -0.7 | 1.4% | -14.3 | 0.6 | -18.5
Cc1sc2nc(SCC(=O)NCc3ccco3)n(Cc3ccccc3)c(=O)c2c1C | -2.9 | 0.9 | 20.7% | 0.6 | -17.2 | -0.7
CCOc1ccc(S(=O)(=O)N2CCCC2)c2ccccc12 | -2.7 | 1.0 | 5.5% | -11.6 | -7.2 | 46.9
CN(Cc1ccn[nH]1)C(=O)C1CCC(=O)N(Cc2cccc(C(F)(F)F)c2)C1 (configuration not stated) | -6.1 | 3.2 | 1.2% | nt | 5.7 | 0.0
O=C1CC(c2nnc(Cc3ccc(F)cc3)o2)CN1c1ccccc1 (configuration not stated) | nt | 1.6 | -1.5% | nt | 3.1 | nt
Cn1cc(-c2nnc(-c3ccccc3)o2)c2ccccc21 | 1.2 | 1.3 | 4.6% | 1.9 | -2.2 | 8.3
COC(=O)c1cc(C(=O)Nc2cc(C)on2)cc([N+](=O)[O-])c1 | 4.9 | -0.1 | 1.0% | 6.4 | -5.7 | 1.2
C=CCOc1c(Cl)cc(C(=S)N2CCCC2)cc1OCC | -2.0 | 2.7 | 2.0% | -4.4 | 24.5 | -2.0
COc1cccc(/C=C/C(=O)Nc2cc(S(=O)(=O)N3CCOCC3)ccc2OC)c1 | -3.6 | 2.6 | 9.4% | -2.1 | -6.3 | -18.5

Full records from above. Order of screens: D2 ag | TRPML1 ag | PINK1 expr mod | CtBP-E1A blk | TRPML1 blocker | Six1-Eya2 inh
Results for `Cc1cc(C)c(Nc2n[nH]c(=S)s2)cc1C` : -4.5 | -0.6 | 0.9% | -4.4 | 12.7 | 2.3
Results for `COC(=O)[C@@]1(Cc2ccc(F)cc2)[C@H]2c3cc(C(=O)N4CCCC4)n(Cc4ccc(OC(F)(F)F)cc4)c3C[C@H]2CN1C(=O)c1ccccc1` : nt | 0.6 | 5.7% | -14.3 | nt | -11.3
Results for `C=CCOc1c(Cl)cc(C(=S)N2CCCC2)cc1OCC` : -2.0 | 2.7 | 2.0% | -4.4 | 24.5 | -2.0
Results for `Cc1n[nH]c(=S)n1/N=C/c1ccc(OCc2ccc(Cl)cc2Cl)cc1` : 2.9 | -0.8 | 7.3% | 7.1 | 6.4 | -6.0

Other entries follow:
SMILES | D2 ag | TRPML1 ag | PINK1 expr mod | CtBP-E1A blk | TRPML1 blocker | Six1-Eya2 inh
CC1CCCN(C(=O)c2ccc3c(=O)n(Cc4ccc5c(c4)OCO5)c(=S)[nH]c3c2)C1 (configuration not stated) | -3.8 | 0.2 | ? | -7.4 | -9.0 | -11.5
N#CCN1C(=S)N=C(Nc2cccc(Cl)c2)C12CCCCC2 | -0.4 | 1.6 | 1.3% | -1.0 | -16.4 | 7.7
Cc1cccc(NC(=O)Cn2c(=O)oc3cc(S(=O)(=O)NCc4ccccc4)ccc32)c1 | nt | -1.0 | 5.4% | nt | -7.7 | nt
CC(=O)N1c2ccc(S(=O)(=O)NCC3CCC(C(=O)Nc4cccc(C)c4C)CC3)cc2CC1C (configuration not stated) | nt | 1.2 | -0.4% | nt | 8.6 | nt
CC(=O)N1CCc2cc(S(=O)(=O)NC(Cc3ccccc3)C(=O)NC3CCCCCC3)ccc21 (configuration not stated) | -1.6 | -0.2 | 0.7%[38.3 µM] | 7.4 | -5.9 | -1.1
Cc1ccc(CNC(=O)c2cc(-c3ccc(C)c(C)c3)nc3ccccc23)cc1 | nt | -1.0 | 1.9% | nt | -6.6 | nt
CC(=O)OC(C(=O)NC1CCCCC1)c1ccc(Cl)cc1 (configuration not stated) | -4.6 | 0.8 | -3.6% | 8.7 | 24.5 | 0.8
O=C(CSc1nnc(-c2cnccn2)n1Cc1ccco1)c1ccc(Cl)cc1 | -0.8 | -0.4 | 0.4%[38.3 µM] | -15.6 | 5.2 | -12.4
O=C(Nc1cc(S(=O)(=O)N2CCOCC2)ccc1N1CCOCC1)c1ccc([N+](=O)[O-])s1 | 7.9 | -0.6 | -1.6% | -1.1 | -8.8 | -2.4
COc1ccccc1Cc1c(-c2cccc(Cl)c2)nc2ccc(Cl)cn12 | -4.6 | 0.7 | 13.3% | 1.5 | 0.0 | 2.6
CC(Oc1ccc(Cl)cc1Cl)C(=O)NC(=S)N1CCc2ccccc21 (configuration not stated) | -2.3 | 2.9 | 0.7% | -5.9 | 26.6 | -7.7
CN1CCc2c(sc(NC(=O)c3ccc(C(=O)c4ccccc4)cc3)c2C(N)=O)C1 | -1.0 | 1.3 | ? | 0.6 | -11.1 | -1.1
CCOC(=O)c1sc(=NC(=O)c2ccc(S(=O)(=O)N3CC(C)OC(C)C3)cc2)n(C)c1C (configuration not stated) | -2.2 | -0.2 | ? | -19.3 | 12.2 | 6.6
COc1ccc(CCNC(=O)CSc2nnnn2C)cc1OC | -2.0 | 0.3 | 1.4% | nt | 6.7 | 8.4
N#Cc1c(N)[nH]c(=S)c(C#N)c1-c1ccccc1 | -4.2 | 0.3 | 18.5%[38.3 µM] | -24.2 | -0.2 | -15.3
Cc1nc2ccccc2nc1SCC(=O)N1CCC(C)CC1 | 0.0 | 1.8 | 3.0%[38.3 µM] | -2.2 | 0.0 | 3.1
CNC(=O)CSc1nnc(-c2ccccn2)n1Cc1ccco1 | -2.4 | nt | 0.2% | -0.5 | nt | 2.2
COc1cc2nc(N(CCN(C)C)C(=O)c3ccc4ccccc4c3)sc2cc1OC | -6.0 | -1.2 | -0.2% | 0.8 | 0.1 | ?
COc1cccc(NC(=S)N2CCCC2)c1 | 1.8 | -0.4 | 0.1% | -1.7 | 6.4 | -6.0
COc1ccc(-n2c3c(cc(C(=O)NC4CCSC4=O)c2=O)C(=O)CC(C)(C)C3)cc1 (configuration not stated) | 0.1 | 0.0 | 4.7%[38.3 µM] | 0.6 | 11.3 | 2.1
CCOc1cccc(-c2c(C(=O)N/N=C/c3ccco3)nnn2-c2nonc2N)c1 | -1.0 | -0.8 | -1.2% | -0.9 | 0.9 | -4.2
Oc1ccc(CNc2ccccc2F)c2cccnc12 | -0.6 | -0.5 | 28.2µM* | -93.8* | 10.0 | -91.3*
CCOC(=O)c1sc2nccc(N(C)C)c2c1N=CN(C)C | 0.7 | 0.1 | -1.0% | -6.5 | 14.7 | 7.4
COc1cc(NC(=O)CCN2CCOCC2)cc(OC)c1 | 0.1 | -0.7 | 2.1% | 5.2 | -7.1 | 4.7
O=S(=O)(CCN1CCN(C(c2ccccc2)c2ccccc2)CC1)C(F)(F)F | 0.4 | 0.1 | -0.2%[38.3 µM] | 4.9 | 4.6 | 4.4
CCOC(=O)Cc1cnc(NC(=O)CSc2nc(C(C)C)cc(=O)[nH]2)s1 | 1.1 | 2.3 | 0.5% | -13.1 | 18.7 | 8.8
COC(=O)c1ccc(C(=O)OC)c(NC(=O)CCc2ccc(C)o2)c1 | -3.0 | 2.8 | -1.2% | -3.4 | 3.0 | -2.5
CCOC(=O)c1c(C)[nH]c(C(=O)Cn2nnc(-c3ccc(Cl)cc3)n2)c1C | 0.5 | 1.6 | 14.1%[38.3 µM] | -4.6 | -2.0 | -11.6
COc1ccc(N2C(=O)CCC(C(=O)N(C)CCc3ccccn3)C2c2ccc(OC)c(OC)c2)cc1 (configuration not stated) | -2.7 | 0.7 | 1.4% | -2.0 | -5.4 | 3.1
COc1cc(NC2c3ncccc3C(=O)N2Cc2ccco2)cc(OC)c1OC (configuration not stated) | 2.9 | 0.2 | 0.3% | -1.0 | 1.9 | 1.4
Cc1ccc(-c2cnc3c(Nc4cccc(OC(F)(F)C(F)F)c4)nccn23)cc1 | 8.5 | -0.1 | -0.5% | -11.0 | nt | -11.7
COC(=O)c1c(C)[nH]c(/C=N/Nc2ccccc2)c1C | 0.8 | 1.4 | 1.0% | -19.1 | -12.0 | -10.4
CCOC(=O)C1=CCN(S(=O)(=O)c2ccc(C)cc2)C1c1cccc(Cl)c1 (configuration not stated) | -3.0 | 4.8 | 6.1% | -9.8 | -20.4 | 19.0
CCN(C(=O)Cc1ccc(Br)cc1)C1CCCCC1 | -1.6 | 0.3 | 4.9% | 7.0 | 4.8 | -6.2
Cn1c(CCNC(=O)c2ccccc2Cl)n[nH]c1=S | -3.2 | -0.4 | -1.1% | 11.5 | -1.5 | 0.0
C=CCNC(=S)N1CCC(C(N)=O)CC1 | 1.2 | -0.1 | -1.9% | -1.1 | -16.9 | 1.1
Cc1ccc(C(=O)NC(C)(COc2nonc2C)COc2nonc2C)cc1 | -1.4 | 2.3 | nt | 9.9 | 3.4 | 6.0
Cc1ccc(C(O)CN2C3=NCCCN3c3ccccc32)cc1 (configuration not stated) | 0.7 | -0.2 | nt | 4.5 | -7.0 | 6.5
COC(=O)c1ccc(S(=O)(=O)N(Cc2ccccc2)Cc2ccccc2)n1C | 5.7 | 1.7 | -0.3% | nt | 24.5 | 2.9
O=C(CN(Cc1ccc(F)cc1)S(=O)(=O)c1ccccc1)N1CCCCC1 | -0.8 | -1.8 | -0.8% | 3.7 | 8.0 | -0.2
O=C(CNC(=O)c1cccs1)NCC(=O)OCC(=O)c1ccccc1 | -1.1 | -0.5 | 0.3% | 3.3 | 25.6 | 2.3
CC(=O)c1nnn(-c2c(F)cccc2F)c1C | -4.1 | -0.8 | 1.8% | nt | -7.0 | 5.1

An unsorted share of the library. About 1% of those tested had a hit in this group.
